Screening results: PubChem BioAssay, Southern Research Institute
Mtb growth = Confirmatory growth inhibition assay against Mycobacterium tuberculosis H37Rv, potency (AID 1949). most inactive calls were filed without a number and no value below 0 was filed. inhibition, % at 10 µg/mL, or IC50 in µg/mL where a hit was titrated. actives 1.6% (n = 100,000);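 active = confirmed in a dose series; inconclusive = about 50% or more but not retested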;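 also: bacteria grown 7 days with compound before Alamar blue readout; 0% = untreated bacteria and 100% = reference antibiotic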
Active calls of the source: *; i = inactive; u = inconclusive.

cpd	SMILES	Mtb growth
1	Cn1cc(S(=O)(=O)O)cc1-c1nc2ccccc2n1C	i
2	COc1ccc(CN2CCN(C(=O)c3ccc(-c4ccccc4)cc3)CC2)cc1	8%
3	COC(=O)c1cc(NC(=S)NCc2cccnc2)cc(C(=O)OC)c1	i
4	CCOC(=O)c1ccc(NC(=O)c2ccc(C#N)cc2F)cc1	i
5	C=CCn1c(SCC(N)=O)nc2scc(-c3ccco3)c2c1=O	i
6	NC(=O)c1ccc(NS(=O)(=O)c2cc(Cl)ccc2Cl)cc1	i
7	Cc1c(OCC(=O)Nc2c(C(C)C)cccc2C(C)C)ccc2c(-c3ccccc3)cc(=O)oc12	i
8	CSc1nc(N2CCOCC2)c2c(c1C#N)CCCCC2	i
9	O=C(CS(=O)(=O)Cc1ccccc1)NCC1CCCO1 (stereo not drawn)	i
10	O=C(OCc1ccccc1)C1=NNC2C(=O)N(Cc3ccccc3)C(=O)C12 (stereo not drawn)	i
11	CCOc1ccccc1C(=O)Nc1ccc(N2CCOCC2)cc1	i
12	O=C(CSc1nnc(-c2cccnc2)n1-c1ccccc1)Nc1ccc2c(c1)OCO2	i
13	COCc1nc2ccccc2n1Cc1cccc(C)c1	i
14	COc1ccc(CCN2C(=O)CCCC2=O)cc1OC	i
15	Cc1cccc(Nc2nc3ccc(C)cc3n3cnnc23)c1	i
16	CC12CCC(C(=O)Nc3ccc(F)cc3)(CC1=O)C2(C)C (stereo not drawn)	8%
17	COCCNC(=S)Nc1ccn(C)n1	i
18	CNC(=O)CN(c1ccccc1)S(=O)(=O)c1ccc(Cl)cc1	i
19	c1ccc2c(NC3=NCCS3)cccc2c1	12%
20	CCc1c(C)c2ccc(OCC(=O)c3cccc([N+](=O)[O-])c3)c(C)c2oc1=O	i
21	Cc1ccc(N2C(=O)CC(n3ccnc3)C2=O)cc1 (stereo not drawn)	i
22	O=S(=O)(Nc1ccc(Cl)cc1F)c1cc(Cl)ccc1Cl	i
23	COc1cc(CNc2ccc(N3CCCC3)cc2)cc(Br)c1OCC(N)=O	i
24	O=C(Nc1ccc(C(F)(F)F)cc1[N+](=O)[O-])c1ccccc1	i
25	O=C(Nc1ccccn1)c1ccc2nc(-c3ccccc3)c(-c3ccccc3)nc2c1	i
26	Cc1cccc(-c2nnc(SCC(=O)Nc3ccc(Br)c(C)c3)n2C)c1	i
27	Clc1ccc(SCCOCCn2ccnc2)cc1	i
28	COc1cc(NC(=O)CCC(=O)O)ccc1NC(C)=O	i
29	CC(=O)Nc1ccc(OC(=O)c2ccc(Br)o2)cc1	11%
30	CCN1CCN(CCOc2ccccc2Cc2ccccc2)CC1	i
31	NC(=O)c1sc2c(c1N)C(c1ccccc1Cl)CC(=O)N2 (stereo not drawn)	i
32	Cc1cccc(NC(=S)NCc2ccc(F)cc2)c1C	i
33	CCOC(=O)C1=CN(C(C)C)C=C(C(=O)OCC)C1c1ccccc1Cl	i
34	O=c1oc2c(O)c(O)ccc2c2c1CCC2	i
35	CN(Cc1ccccc1)S(=O)(=O)c1ccc(NC(=O)C(c2ccccc2)c2ccccc2)cc1	4%
36	Cn1ncc(N2CCN(C(=O)c3ccc(Cl)cc3)CC2)c(Cl)c1=O	1%
37	O=C(Nc1cccc(C(F)(F)F)c1)c1cnc(-c2ccccc2)nc1	4%
38	Cc1cc(C(=O)Nc2cccnc2)sc1-c1ccccc1	26%
39	COc1ccc(S(=O)(=O)N(C(=O)C2CCCCC2)c2ccc3oc(C)c(C(C)=O)c3c2)cc1	i
40	COc1cccc(C2C(C(=O)OC3CCCC3)=C(C)NC3=C2C(=O)CC(c2ccco2)C3)c1OC (stereo not drawn)	15%
41	CS(=O)(=O)N(CC(=O)NC1CC1)c1cccc(Cl)c1	i
42	COc1cc(C(=O)Oc2ccc3c(c2)CCCC3)cc(OC)c1OC	i
43	O=[N+]([O-])c1cccc(S(=O)(=O)Nc2nccs2)c1	i
44	COCCNC(=S)NNC(=O)c1ccc(Cl)cc1Cl	i
45	CCOc1ccc(C(=O)NC(=S)Nc2cc(C(=O)O)ccc2C)cc1	i
46	COc1ccc(Cl)cc1-n1c(=S)[nH]c2ccccc2c1=O	i
47	CCN1CCN(c2ccc(NC(=O)c3ccccc3C)cc2)CC1	i
48	O=C(CC(c1ccccc1)c1ccccc1)NNC(=S)Nc1ccc2c(c1)OCO2	i
49	CCCCc1nc(SC(C)C(=O)Nc2ccc(C(=O)OCC)cc2)n[nH]1 (stereo not drawn)	i
50	S=C(Nc1ccccc1)c1c(-c2ccccc2)cc2ccccn12	8%
51	CS(=O)(=O)N(CC(=O)Nc1cc(C(F)(F)F)ccc1Cl)C1CCCCC1	i
52	COc1ccc(Cl)cc1Nc1nc(N2CCOCC2)nc(N2CCOCC2)n1	i
53	COc1cc(S(=O)(=O)Nc2ccc(C)cc2)ccc1NC(=O)c1ccc(F)cc1	i
54	CCOc1cc(CNC(C)(C)CO)cc(Br)c1OCC(=O)NC1CCCCC1	2%
55	CCC(CO)NCc1ccc(N(C)C)cc1 (stereo not drawn)	i
56	COc1ccc(OCC(=O)NCCN(C)C)cc1	i
57	COc1cc(/C=C(/C#N)c2cccc(F)c2)cc(Br)c1OCC(=O)O	i
58	CCn1c(C(O)(c2ccccc2)c2ccc(C)cc2)nc2ccccc21 (stereo not drawn)	1%
59	CC1CCCCN1C(=O)c1ccc(S(=O)(=O)N2CCCCC2C)cc1 (stereo not drawn)	i
60	COc1cc(NC(=O)c2ccc(Cl)cc2Cl)ccc1NC(=O)C(C)C	i

Additional results follow:
cpd	SMILES	Mtb growth
61	O=C1CC(Cc2ccc(Cl)cc2)C(=O)N1c1ccccn1 (stereo not drawn)	i
62	CC(C)Oc1cccc(C(=O)Nc2ccc(N3CCN(Cc4ccccc4F)CC3)cc2)c1	5%
63	Cc1ccc(-c2cc(N)n(-c3ccc(C)cc3)n2)cc1	5%
64	Cc1ccc(S(=O)(=O)N(c2c(C)cccc2C)C(F)F)cc1	i
65	O=C(Nc1nccs1)C1CC(=O)N(c2ccccc2Cl)C1 (stereo not drawn)	i
66	N#Cc1c(NC(=O)c2cccs2)sc2c1CCCCC2	0%
67	Cc1ccccc1NS(=O)(=O)c1cccc(C(=O)Nc2ccccc2C(=O)O)c1	i
68	Cc1c(C(=O)Nc2ccon2)oc2ccccc12	i
69	Cc1nc(NC(=O)c2ccco2)ccc1I	i
70	CC1CN(C(=O)c2ccc(COCC(F)(F)F)o2)CC(C)O1 (stereo not drawn)	i
71	O=C(Oc1cccc(-c2nnco2)c1)N1CCOCC1	i
72	O=C(c1ccco1)c1nnn(Cc2ccccc2)c1-c1ccccc1	2%
73	COc1ccccc1CNCc1ccncc1	i
74	COc1ccc(C(=O)Cn2nnc3ccccc3c2=O)cc1Br	i
75	O=C(Nc1ccc([N+](=O)[O-])cc1)N1CCN(c2ccccc2F)CC1	3%
76	S=C(Cc1cccnc1)N1CCOCC1	2%
77	CC(C)(C)C(=O)NC(=S)Nc1ccc(Br)cn1	i
78	CC(=O)Nc1ccc2nc(SCc3ccccc3Br)sc2c1	2%
79	O=C(c1ccc(F)cc1)n1nnc2ccccc21	i
80	Cc1ccc(C(=O)c2cc3c(cc2[N+](=O)[O-])OCCO3)cc1	i
81	CCc1ccc(-c2nc3ccccc3c(C(N)=O)c2C)cc1	i
82	O=S(=O)(Nc1cc(C(F)(F)F)ccc1Cl)c1cccc2cccnc12	i
83	Cn1c(=O)c2c(ncn2CC(=O)NC2CCCCC2)n(C)c1=O	i
84	Cc1cc(=O)[nH]c(SCC(=O)Nc2ccc(F)cc2)n1	i

Following part.
cpd | Molecule | Mtb growth
85 | Cn1c(CNc2ccc(Br)cc2)nc2ccccc21 | i
86 | CCOC(=O)COc1ccc2oc(C)c(C(=O)OC)c2c1 | 6.3µg/mL*
87 | COc1cc(-c2ccc(NC(=O)C3CCCO3)c(OC)c2)ccc1NC(=O)C1CCCO1 (stereo not drawn) | i
88 | Clc1ccc(-c2noc(C3CCCO3)n2)cc1 (stereo not drawn) | i
89 | CCC(C)NS(=O)(=O)c1ccc(NC(=O)c2ccc(-c3ccccc3)cc2)cc1 (stereo not drawn) | i
90 | O=C(Nc1ncc(Cc2ccc(F)cc2)s1)C(Cl)Cl | i
91 | CCOC(=O)C1=C(COc2ccc(C)cc2)NC(=O)NC1c1ccc2c(c1)OCO2 (stereo not drawn) | i
92 | CCCn1nnc(NC(=O)c2ccc(C)c(C)c2)n1 | i
93 | Cc1ccc(SCC(=O)Nc2cc(C)c(C)cc2Br)cc1 | 50%
94 | COc1ccc(S(=O)(=O)N2c3cc(F)ccc3CCC2C)cc1OC (stereo not drawn) | i
95 | COc1cccc(OCc2ccc(C(=O)O)o2)c1 | i
96 | O=C(CSc1ccccc1[N+](=O)[O-])Oc1ccc(Cl)cc1 | i
97 | Cc1cc(I)ccc1N1C(=O)C2C3C=CC(CC3)C2C1=O (stereo not drawn) | i
98 | COc1cc(OC)cc(C(=O)Nc2cccc(N3CCCC3)c2)c1 | 2%
99 | O=C(CCc1ccccc1)Oc1ccccc1F | i
100 | C=CCSc1nc(C)c(CC(=C)C)c(=O)[nH]1 | 9%
101 | CCN(CC)CC(c1ccccc1)C(O)c1ccc(OC)cc1 (stereo not drawn) | 4%
102 | COc1cc(C)c(S(=O)(=O)N2CCC(C(N)=O)CC2)cc1C | i
103 | COc1ccccc1NC(=O)COc1ccc(Br)cc1C=O | i
104 | S=c1[nH]nc(C2COc3ccccc3O2)n1-c1ccccc1 (stereo not drawn) | i
105 | CC(=O)c1c(C)oc2ccc(NS(=O)(=O)c3cc4c5c(cccc5c3)C(=O)NC4=O)cc12 | i
106 | Cc1nc2nc(Cc3ccccc3)[nH]n2c(=O)c1Cc1ccccc1 | i
107 | O=C(COc1ccc(C(=S)N2CCCCC2)cc1)Nc1cccc(C(F)(F)F)c1 | 17%
108 | COc1ccc(NC(=O)c2cccc(Oc3ccc([N+](=O)[O-])cc3C(F)(F)F)c2)cc1 | 5%
109 | CS(=O)(=O)N(CC(=O)NC1CCCCCC1)c1ccc(I)cc1 | i
110 | CCOC(=O)c1cc2n(c1N)-c1ccccc1C2=O | i
111 | Cn1c(SCC(=O)c2ccc(Cl)cc2)nnc1-c1ccc([N+](=O)[O-])cc1 | 3%
112 | CCOC(=O)c1ccccc1NC(=O)c1ccc(Br)o1 | i
113 | COc1ccc(Nc2nnc3nc(C)cc(C)n23)cc1 | i
114 | O=C(Nc1cccc(-c2cc3ccccc3oc2=O)c1)c1sc2ccccc2c1Cl | 3%
115 | Cc1cc(Br)c(S(=O)(=O)NC2CC(C)(C)NC(C)(C)C2)cc1C | 0%
116 | Cc1cc(C(=O)Oc2ccccc2)ccc1[N+](=O)[O-] | 1.9µg/mL*
117 | S=C(NCCc1ccc(Cl)cc1)Nc1ccc(Nc2ccccc2)cc1 | 2.1µg/mL*
118 | CSc1nsc(SCC(=O)N2CCCc3ccccc32)n1 | u
119 | CCOc1ccccc1N(CC(=O)Nc1ccccc1Br)S(C)(=O)=O | 1%
120 | O=C(NC12CC3CC(CC(C3)C1)C2)c1ccccc1NS(=O)(=O)c1cccc([N+](=O)[O-])c1 | i
121 | Cc1nnc2sc(-c3cccc(NC(=O)c4ccc(Br)o4)c3)nn12 | 4%
122 | O=C(Nc1ccccc1)c1ccccc1[N+](=O)[O-] | 1%
123 | COC(=O)C1=C(C)NC(=O)NC1c1ccccc1OCC(=O)Nc1ccc(C)cc1 (stereo not drawn) | i
124 | CCC(Oc1ccccc1)C(=O)N1CC(C)CC(C)C1 (stereo not drawn) | i
125 | O=C(CC1CCCCC1)NCc1ccc(F)cc1 | i
126 | CCOC(=O)Cc1c(C)nc2cc(-c3ccc(Cl)cc3)[nH]n2c1=O | i
127 | CC(=O)N1c2ccccc2C(=O)C1Cc1ccccc1 (stereo not drawn) | 3%
128 | CC(Oc1ccc(Cl)cc1Cl)C(=O)N1CCCCC1C (stereo not drawn) | 6%
129 | C=CCn1c(NCc2cc(C)ccc2O)nc2ccccc21 | i
130 | COc1ccccc1N1CC(C(=O)Nc2ccccc2Cl)CC1=O (stereo not drawn) | i
131 | CCC(CC)C(=O)Nc1cccc(C(=O)Nc2cccnc2)c1 | i
132 | Cc1ccc(Nc2nc(CSc3nnc(-c4ccccc4)o3)cs2)cc1 | i
133 | c1ccc(-c2noc(CN3CCN(c4ccccc4)CC3)n2)cc1 | 0%
134 | COc1cccc(S(=O)(=O)NCc2ccc(C(=O)NCc3ccco3)cc2)c1 | 0%
135 | Cc1ccc2cc(S(=O)(=O)NCCCN3CCOCC3)ccc2c1 | i
136 | O=C(NCCCO)c1nc2ccccc2s1 | i
137 | CC(Sc1ccccc1)C(=O)NC1CCCCCC1 (stereo not drawn) | i
138 | CCCCC(=O)NC(=S)Nc1cccc(C(=O)O)c1C | i
139 | O=C(NCc1ccncc1)Nc1ccc(F)cc1 | i
140 | O=C1CCCC2=C1Sc1ccc(Cl)cc1N2 | i
141 | OC(CNCc1cccc(Br)c1)c1ccccc1 (stereo not drawn) | 0%
142 | CC1CCCN(S(=O)(=O)c2ccc(Cl)s2)C1 (stereo not drawn) | i
143 | CN(C)CCC#CC(O)(c1ccccc1)C1CCCCC1 (stereo not drawn) | 0%
144 | COc1ccc(S(=O)(=O)n2c(=O)n(S(=O)(=O)c3ccc(OC)cc3)c3ccccc32)cc1 | 0%

The list is partial. The share of hits here may be higher or lower than overall.
